Rce1 inhib = blocks yeast Ras-converting enzyme. yeast membranes, quenched prenylated peptide cleavage fluorescence. calls only. actives 0.27% (n = 290,000). AID 2563;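 active = fall in fluorescence gain of 50% or more versus controls, with final raw signal at or below 3038400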;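 also: plate controls were neutral control wells for no effect and wells lacking membranes for full effect; tested at 10 µM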
Target sequence (Q03530 whole entry, looked up): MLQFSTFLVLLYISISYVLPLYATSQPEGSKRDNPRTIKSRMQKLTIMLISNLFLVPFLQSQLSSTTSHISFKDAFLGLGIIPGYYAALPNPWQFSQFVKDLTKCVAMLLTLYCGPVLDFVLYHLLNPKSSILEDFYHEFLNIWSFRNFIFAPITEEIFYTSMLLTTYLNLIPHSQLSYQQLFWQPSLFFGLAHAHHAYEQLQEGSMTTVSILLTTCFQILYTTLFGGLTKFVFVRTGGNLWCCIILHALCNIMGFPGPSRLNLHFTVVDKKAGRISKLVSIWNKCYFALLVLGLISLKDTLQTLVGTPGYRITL
Yeast UUG start = modulators of start codon recognition fidelity in yeast; S. cerevisiae UUG-firefly luciferase reporter, luminescence/redox ratio; activity score, % at 18.7 µM; AID 602363; actives 0.13% (n = 350,000);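 active = replicate mean at a twofold rise or more, about +100% in these data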;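 also: firefly luciferase made from a UUG start codon reports start codon fidelity; reporter light over untreated wells divided by growth signal over untreated wells; some hits fall short of that in this replicate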
eIF4H FP inh = inhibitors of RNA binding by human eIF4H | Q15056 | eIF4H fluorescence polarization binding assay | inhibition, % at 35 µM | actives 0.94% (n = 290,000) | AID 2012;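 active = 50% or more with normal probe brightness, or confirmed in later tests; about a fifth of its hits are not listed in these tables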;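 also: calls also rest on retests at 20 µM and on dose response follow-up; 0% = protein and probe with vehicle and 100% = probe without protein; strong numbers were not always called active; many hits fall short of the cut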
Env fusion inh = inhibitors of HIV Env-mediated cell fusion. inhibition, % at 12.3 µM. HeLa-JRFL Env/CEM21 cell fusion, luciferase. actives 1.1% (n = 360,000). AID 651610;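 active = mean replicate inhibition score of at least 50 and every replicate individually at or above 50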;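 also: 0% = plate neutral controls and 100% = maraviroc near 300 nM; one replicate is shown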
MT1-MMP act inh = MT1-MMP (human) activation inhibition. P50281. HT1080 RFP-PRO-GFP cells, GFP/RFP ratio fluorescence, overnight; percent of plate control window, DMSO zero. GFP/RFP ratio change, % at 20 µM. actives 0.061% (n = 360,000);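 active = GFP/RFP ratio change of at least 30% with cell ATP level not reduced by more than half and red fluorescence within 50% of control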; also: strong numbers were not always called active
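Read-out: GFP/RFP fluorescence ratio; Test system: RFP-PRO-GFP reporter HT1080 cells; Compound dosing: single-point 20 µM compound, 1% DMSO; Times: overnight compound exposure at 37 °C.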
CSC inhib = cancer stem cell inhibition | actives 1.1% (n = 300,000) | inhibition, % at 7.5 µM | cancer stem cell-like cells viability, luminescence;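 active = mean at 75% or more and at least half the replicates too; tested in HMLE shEcad cells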;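 also: 0% = median of negative and 100% = median of positive control wells; the first replicate is given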
PABP FP inh = PABP-poly(A) binding inhibition; PABP-poly(A) RNA binding, fluorescence polarization; inhibition, % at 35 µM; P11940; actives 1% (n = 290,000);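 active = 50% or more with normal probe brightness, or confirmed in later tests; about a fifth of its hits are not listed in these tables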;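 also: calls also rest on retests at 20 µM and on dose response follow-up; controls were probe without protein and protein plus probe with vehicle; some compounds called inactive have numbers as strong as hits; many hits fall short of the cut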
MT1-MMP act inh RFP = second read-out of MT1-MMP act inh, no call of its own (marks repeat the call); RFP signal change, %; measured here: RFP expression control read;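 0 = vehicle wells; hits needed this value within 50% of zero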
* hit, by the source's call; i = inactive; x = no result given.

Start of the data: the first ten entries (preview)
SMILES | Rce1 inhib | Yeast UUG start | eIF4H FP inh | Env fusion inh | MT1-MMP act inh | MT1-MMP act inh RFP | CSC inhib | PABP FP inh
OC(COCC1CC=CCC1)Cn1cnc2ccccc21 (centres undefined) | i | -13 | -4 | 27 | 11 | -2 | -6 | 6
COc1cc(OCc2ccc(C)cc2)ccc1CNC[C@H]1O[C@@H](n2cnc(C(N)=O)n2)[C@H](O)[C@@H]1O | x | -12 | x | -53 | 1 | 3 | x | x
Cc1ccc(-n2nc3c(Cl)nnc(C)c3c2C)cc1 | i | -5 | 3 | x | 0 | 5 | 12 | -3
O=C(NCc1ccccc1)c1cc(C2CCCCN2C(=O)CCc2ccccc2)on1 (centres undefined) | x | -3 | x | -7 | -2 | -5 | x | x
CC(=O)c1cccc(NC(=S)NCc2ccccc2)c1 | i | -12 | -6 | -19 | -3 | -3 | -5 | 7
CC1CN(C/C(=N\O)C23CC4CC(CC(C4)C2)C3)CC(C)O1 (centres undefined) | i | -11 | 7 | 17 | -4 | 2 | -6 | -1
CC#CCN1c2ccccc2[C@]23C[C@@H](C(=O)OC)N(C(=O)OCC)C2=NC(C(=O)OC)=C(C(=O)OC)[C@H]13 | i | -2 | -6 | -31 | -1 | 5 | 1 | -1
CC(C)(C)Nc1nc2ccc([N+](=O)[O-])cc2o1 | i | x | -5 | -5 | -4 | 0 | 7 | -3
O=C(CSc1ncccn1)Nc1ccccc1 | i | x | -2 | -25 | 4 | 0 | -7 | -2
OC(COc1ccccc1)CN1CCN(c2ccccc2)CC1 (centres undefined) | x | -19 | x | 27 | -4 | -1 | x | x

Results, previewed entries included:
SMILES | Rce1 inhib | Yeast UUG start | eIF4H FP inh | Env fusion inh | MT1-MMP act inh | MT1-MMP act inh RFP | CSC inhib | PABP FP inh
OC(COCC1CC=CCC1)Cn1cnc2ccccc21 (centres undefined) | i | -13 | -4 | 27 | 11 | -2 | -6 | 6
COc1cc(OCc2ccc(C)cc2)ccc1CNC[C@H]1O[C@@H](n2cnc(C(N)=O)n2)[C@H](O)[C@@H]1O | x | -12 | x | -53 | 1 | 3 | x | x
Cc1ccc(-n2nc3c(Cl)nnc(C)c3c2C)cc1 | i | -5 | 3 | x | 0 | 5 | 12 | -3
O=C(NCc1ccccc1)c1cc(C2CCCCN2C(=O)CCc2ccccc2)on1 (centres undefined) | x | -3 | x | -7 | -2 | -5 | x | x
CC(=O)c1cccc(NC(=S)NCc2ccccc2)c1 | i | -12 | -6 | -19 | -3 | -3 | -5 | 7
CC1CN(C/C(=N\O)C23CC4CC(CC(C4)C2)C3)CC(C)O1 (centres undefined) | i | -11 | 7 | 17 | -4 | 2 | -6 | -1
CC#CCN1c2ccccc2[C@]23C[C@@H](C(=O)OC)N(C(=O)OCC)C2=NC(C(=O)OC)=C(C(=O)OC)[C@H]13 | i | -2 | -6 | -31 | -1 | 5 | 1 | -1
CC(C)(C)Nc1nc2ccc([N+](=O)[O-])cc2o1 | i | x | -5 | -5 | -4 | 0 | 7 | -3
O=C(CSc1ncccn1)Nc1ccccc1 | i | x | -2 | -25 | 4 | 0 | -7 | -2
OC(COc1ccccc1)CN1CCN(c2ccccc2)CC1 (centres undefined) | x | -19 | x | 27 | -4 | -1 | x | x
CCS(=O)(=O)NCc1csc(-c2ccccc2)n1 | i | -2 | 8 | 6 | 0 | 1 | -6 | -2
COc1cccc(Cn2nnc(C(=O)NCc3ccccc3Cl)c2N)c1 | i | -16 | -2 | -1 | 3 | 2 | 8 | 2
CC(=O)c1c(Nc2ccccc2)sc(C(=O)c2ccccc2)c1C | i | x | 0 | 1 | -6 | -5 | 8 | 6
CC(C)CC(=O)Nc1nnc(S(=O)(=O)N(C)Cc2ccco2)s1 | i | -12 | x | x | -5 | -1 | 11 | x
S=c1[nH]nc(CCc2ccccc2)n1-c1ccc(Cl)cc1 | i | -31 | 2 | 16 | -1 | 1 | -2 | 6
O=C(Cc1cccs1)N1CCN(C(=O)C2CCCO2)CC1 (centres undefined) | i | -8 | 0 | -34 | 0 | 1 | -9 | -2
CCN(CC)S(=O)(=O)c1cccc(C(=O)N/N=C/c2ccccc2OCC(=O)O)c1 | i | -22 | 1 | -20 | 3 | 6 | -23 | -2
Cc1onc(-c2ccccc2)c1C(=O)Nc1nnc(C(C)C)s1 | i | -21 | -11 | -2 | 0 | 2 | -4 | -1
CCn1cc(C(=O)N2CCCC2)c(=O)c2cc(S(=O)(=O)N3CC(C)CC(C)C3)ccc21 (centres undefined) | i | -15 | -5 | 2 | -1 | -1 | -1 | -3
C=CCN1C(=O)C(=O)N(Cc2nc3ccccc3s2)C1=O | i | -15 | -3 | -45 | 0 | 1 | x | 4
Cc1cc(C)n(CC(=O)N/N=C/c2cc(Br)cc([N+](=O)[O-])c2O)n1 | i | x | 9 | -10 | 0 | 6 | 34 | -13
O=C(CCSc1ccccc1)Nc1ccc(OCc2ccccc2)cc1 | i | x | 3 | x | 3 | 4 | -1 | 6
O=c1cc(CSc2nc(NCc3ccccc3)c3ccccc3n2)nc2ccc(Cl)cn12 | i | 3 | -5 | -3 | -11 | -9 | 9 | 1
CCN(CC(=O)NCc1ccc(F)cc1)CC(=O)Nc1ccc(S(=O)(=O)N2CCCC2)cc1 | i | 12 | 6 | -17 | 3 | -2 | -5 | 8
O=c1c(Cc2ccc(Cl)cc2Cl)c(O)ccn1Cc1ccncc1 | i | x | -2 | 5 | -16 | -9 | -5 | -9
Cn1cc(-c2csc(C(C)(O)c3cccnc3)n2)cn1 (centres undefined) | x | -18 | x | 2 | 0 | 5 | x | x
CC(=O)N1CSCC1C(=O)O (centres undefined) | i | x | -11 | x | 0 | 3 | -7 | -3
COc1ccc(CCNC(=O)c2cc([N+](=O)[O-])cc([N+](=O)[O-])c2)cc1OC | i | 2 | -4 | 5 | -4 | 1 | 1 | 4
CC1(C(=O)Nc2cccc(S(=O)(=O)N3CCOCC3)c2)Cc2ccccc2C(=O)O1 (centres undefined) | i | x | -12 | 8 | 2 | -1 | -4 | -7
Cc1ccc2c(c1)NCC(C(=O)NC1CCCCC1)O2 (centres undefined) | i | -15 | 0 | x | 4 | 4 | -2 | -8
CCCCCCCN=CC1=C(O)CC(c2ccccc2)CC1=O (centres undefined) | i | 19 | -3 | 15 | 0 | 3 | 15 | -3
O=C(CNS(=O)(=O)c1ccc(F)c(Cl)c1)NCCc1ccccc1 | i | -24 | -12 | 4 | 0 | -1 | -22 | -2
CCCNC(=O)c1ccc(C2SCC(=O)N2CCc2ccccc2)cc1 (centres undefined) | i | -14 | -7 | x | -4 | -13 | -5 | -4
CCCCNc1ccc2nsnc2c1[N+](=O)[O-] | i | -8 | -5 | -278 | 2 | 1 | 0 | -4
CC(C)N1CCc2c(sc(NC(=O)c3ccc([N+](=O)[O-])o3)c2C(N)=O)C1 | i | 20 | 2 | 106* | -46 | -40 | -7 | 0
COc1ccc2nc(C)cc(SCC(=O)N3CCCCC3)c2c1 | i | x | -17 | -31 | -1 | -5 | 10 | 7
O=C(Nc1ccon1)c1cccc(S(=O)(=O)N2CCCCC2)c1 | i | x | 14 | 4 | -1 | 0 | -10 | -2
COc1ccc(OC)c(C(c2c(C)[nH][nH]c2=O)c2c(C)[nH][nH]c2=O)c1 | i | -20 | -5 | 0 | -7 | -3 | -3 | 0
C[C@@H]1CN(C(=O)c2nc3ccc(Cl)cn3c2CN(C)CCc2cnn(C)c2)C[C@H](C)O1 | i | -5 | 17 | -12 | -3 | 4 | -2 | 13
C=CCNc1nnc(Sc2ncccc2[N+](=O)[O-])s1 | i | x | 9 | 12 | 8 | 6 | -3 | 6
S=C(NC1CCCCCC1)NC1CCCC1 | i | x | 4 | 9 | 3 | 2 | -5 | 5
CC1(c2ccc(OC(F)F)cc2)NC(=O)N(CC(=O)Nc2ccccc2)C1=O (centres undefined) | i | -8 | -10 | 1 | 2 | -2 | -5 | 2
O=C(/C=C/c1ccccc1)NC(=S)NNS(=O)(=O)c1ccccc1 | i | x | 12 | -9 | -5 | -2 | 7 | 6
COc1ccc(CCN=C(N)NS(=O)(=O)c2ccc(F)cc2)cc1OC | i | -14 | -6 | 1 | 4 | 0 | -9 | -18
COc1ccc(-n2ncc3c2CC(C)(C)CC3NC(=O)c2cn[nH]c2)cc1 (centres undefined) | i | 10 | -2 | 7 | 0 | 6 | -8 | 1
CC1(C)CC(=O)C2=C(C1)Nc1ccccc1NC2c1cccnc1 (centres undefined) | i | -13 | 2 | x | 3 | 1 | -13 | 3
O=c1nc2ccc(Cl)cn2c2ccc(S(=O)(=O)N3CCCCC3)cc12 | i | -10 | 28 | -7 | 1 | 1 | 9 | 8
CCCn1c(NCc2cccc(OC)c2O)nc2ccccc21 | i | -17 | -16 | -14 | 0 | -3 | 11 | 11
O=C(CSc1nnc(COc2ccc(Cl)cc2)o1)N1CCCCC1 | i | -12 | -4 | 4 | 1 | 1 | -1 | 1
CCCc1ccc(NC(=O)C2CCCN(c3cnccn3)C2)cc1 (centres undefined) | i | -24 | -8 | -1 | -4 | -4 | x | 9
COc1cccc(N(CC(=O)NCCSCc2ccc(C)cc2)S(C)(=O)=O)c1 | i | -15 | 2 | 24 | 4 | 1 | -24 | 5
Fc1ccc(NC2=NCCCCC2)cc1 | i | x | -11 | 1 | -2 | 3 | x | -10
CC(CC(=O)Nc1ccc2c(c1)OCO2)c1ccccc1 (centres undefined) | i | -26 | 4 | -27 | 0 | 3 | -5 | -4
Cc1c(NC(=O)c2cnn3c2NC(c2ccco2)CC3C(F)(F)F)c(=O)n(-c2ccccc2)n1C (centres undefined) | i | -12 | 6 | x | 11 | 8 | -8 | 7
COc1ccc(C(CNC(=O)c2cc(SC)ccc2Cl)N(C)C)cc1 (centres undefined) | x | -10 | 9 | -4 | -7 | 1 | -2 | 0
O=C(CCNS(=O)(=O)c1ccc(Cl)cc1)N1CCN(c2ccccn2)CC1 | i | -10 | 12 | -3 | 0 | 3 | 0 | 8
Cc1ccc(S(=O)(=O)N2CCN(C(C)C)CC2)cc1 | i | -21 | 4 | 13 | -1 | -2 | 4 | -5
C=CCn1c(=NC(=O)CN2C(=O)CCC2=O)sc2cccc(OC)c21 | i | 1 | -3 | -31 | 1 | 4 | -7 | -9
CCC(O)CC(C(=O)NNc1ccccc1)C(=O)NNc1ccccc1 (centres undefined) | i | x | -10 | -3 | 0 | -2 | -10 | -7
COc1ccc(CN2CCN(Cc3nc4ccccc4s3)CC2CCO)c(C)c1C (centres undefined) | i | x | -4 | 5 | 7 | -9 | 38 | 2

Remaining list, next part
SMILES | Rce1 inhib | Yeast UUG start | eIF4H FP inh | Env fusion inh | MT1-MMP act inh | MT1-MMP act inh RFP | CSC inhib | PABP FP inh
Cc1ccccc1/[N+]([O-])=C/c1ccncc1 | i | -25 | 7 | x | 4 | 3 | 4 | 1
CCC1CCc2c(c3ccccc3[nH]c2=O)O1 (centres undefined) | i | -15 | -8 | x | -2 | 1 | x | 2
COCCNc1nc(-c2cc(-c3ccccc3)on2)cc(C(C)C)n1 | i | -2 | -2 | 9 | -3 | -5 | 21 | -6
CCC1(CC)NC(=O)N(CC(=O)OCC(=O)Nc2cc(C)ccc2C)C1=O | i | 3 | -5 | -8 | 0 | 0 | -8 | 2
Cc1cc(C)c2c(c1)-c1c(ssc1=S)C(C)(C)N2C(=O)CN1C(=O)c2ccccc2C1=O | i | -14 | 2 | 45 | 0 | -11 | 2 | -9
C=C(C)C1CC=C(CN2CCN(Cc3ccccc3)CC2)CC1 (centres undefined) | i | -17 | -6 | 9 | 6 | -1 | 3 | 9
CN(c1ccccc1)S(=O)(=O)c1cccc(C(=O)NC2CC(C)(C)NC(C)(C)C2)c1 | x | -6 | x | -5 | -3 | -1 | -16 | x
O=[N+]([O-])c1ccccc1S(=O)(=O)Nc1ccc(-c2ccc(N3CCCC3)nn2)cc1 | i | -1 | x | -20 | -1 | -4 | 7 | x

Screening data from PubChem BioAssay.
